MARV entry inh: Marburg virus entry inhibition. 300,000 compounds, 1.8% hits. Marburg virus pseudotyped entry inhibition, cell reporter; control for the full effect not named in the record; about a third of the inactives were read at about 46 µM. Potency, µM (highest dose often 37.8 µM), for the others: at the highest dose activity change, negative = inhibition, most hits filed as inhibitors; active = well fitted inhibition curve with a large enough effect; inconclusive = small, poorly fitted or top-dose-only effect, or effect the other way; inactive = flat fitted curve, though single readings scatter; tested in HEK293 cells; about a fifth of its hits are not listed in these tables; further: on the % scale 0 is the no-effect control and ±100 the full control effect; luciferase read-out
Cruzain noTriton: inhibitors of Trypanosoma cruzi cruzain without detergent; P25779; purified cruzain, Z-FR-AMC fluorescence, no detergent; Potency, µM, for the others: max response, negative = inhibition, usual class: inhibitors; 200,000 compounds, 2.3% hits; AID 1476;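 further: plate controls were enzyme without inhibitor for no effect and buffer without enzyme for full effect; nearly all actives have a fitted effect of over 40% in size; top concentration of the series not given in the record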
Target sequence (P25779 123-467 limits assumed): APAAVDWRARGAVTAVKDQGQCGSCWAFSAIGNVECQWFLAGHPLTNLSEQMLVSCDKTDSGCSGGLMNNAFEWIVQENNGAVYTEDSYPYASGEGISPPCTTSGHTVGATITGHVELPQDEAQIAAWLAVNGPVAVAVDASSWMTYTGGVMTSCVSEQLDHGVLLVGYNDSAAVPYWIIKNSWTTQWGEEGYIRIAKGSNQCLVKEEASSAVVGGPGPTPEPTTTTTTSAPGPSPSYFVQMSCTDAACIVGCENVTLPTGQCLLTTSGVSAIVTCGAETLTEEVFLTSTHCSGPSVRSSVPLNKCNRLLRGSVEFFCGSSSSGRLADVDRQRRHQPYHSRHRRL
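Detergent-free condition (0.00005% Triton X-100) in acetate buffer pH 5.5 with DTT. 1.5 nM enzyme and compound were pre-mixed 15 min, then 2 uM Z-FR-AMC substrate added; reaction progress from fluorescence change between first and third reads (60 s).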
StopGo reporter: lowers the luciferase signal of an FMDV 2A StopGo reporter; human cells with a luciferase reporter of 2A StopGo recoding; control for the full effect not named in the record; Potency, µM (doses to about 57.9 µM), inactives show at the highest dose signal change, negative = less light; 410,000 compounds, 1.2% hits; active = well fitted falling curve with a large enough effect; inconclusive = small, poorly fitted or top-dose-only effect; inactive = no such curve, though single readings can be large or run the other way; tested in HEK293T cells; further: on the % scale 0 is the no-effect control and ±100 the full control effect; nearly all actives have a fitted effect of over 45% in size; luciferase light after 4 h
NS1 inh: blocks influenza NS1 protein function; 270,000 compounds, 0.4% hits; Potency, µM (titrated, usually from 46.1 µM), for the others: at the highest dose activity, positive = more growth; S. cerevisiae slowed by influenza A NS1, growth recovery by OD600; active means well fitted rising curve with a large enough effect; inconclusive means small, poorly fitted or top-dose-only effect; inactive means no such curve, though single readings can be large or run the other way; further: nearly all actives have a fitted effect of over 50% in size
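A cell-based growth assay was used: compounds that relieve NS1-induced slow growth of budding yeast raise OD600. Assay medium was yeast nitrogen base with ammonium sulphate and -URA supplement, pH 6.0, with 2% galactose.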
RE007 growth inh: less growth of the S. pombe RE007 Vpr strain; S. pombe RE007 Vpr strain, BacTiter-Glo ATP luminescence, 24 h; control for the full effect not named in the record; AID 651644; Potency, µM (series often up to 92.2 µM), without a hit: at the top dose activity change, negative = less growth; 360,000 compounds, 0.21% hits; active = well fitted falling curve with a large enough effect; inconclusive = small, poorly fitted or top-dose-only effect; inactive = no such curve, though single readings can be large or run the other way;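 further: on the % scale 0 is the no-effect control and ±100 the full control effect; nearly all actives have a fitted effect of over 50% in size; the assay follows cell death caused by Vpr and the record does not say whether a fall means rescue or toxicity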
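Fission yeast strain RE007, carrying one chromosomally integrated HIV-1 vpr copy, was seeded at OD 0.01 in PMG+AL medium with 23 nL pinned compound. After 24 h at 30 °C and 99% humidity, viability was read by BacTiter-Glo luminescence.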
LASV entry inh: blocks Lassa virus binding to or entry into cells | Lassa virus pseudotype entry inhibition, cell reporter; control for the full effect not named in the record | Potency, µM (top dose mostly 37.9 µM), for the others: at the top dose activity change, negative = inhibition, actives largely listed as inhibitors | 300,000 compounds, 1.2% hits | AID 540256; active means well fitted inhibition curve with a large enough effect; inconclusive means small, poorly fitted or top-dose-only effect, or effect the other way; inactive means flat fitted curve, though single readings scatter; tested in HEK293 cells; further: on the % scale 0 is the no-effect control and ±100 the full control effect; nearly all actives have a fitted effect of over 50% in size; luciferase read-out
SARS PLP yeast: inhibitors of SARS-CoV papain-like protease in yeast. S. cerevisiae expressing SARS-CoV PLpro, growth rescue; control for the full effect not named in the record. Potency, µM (highest dose often 32.9 µM), without a hit: at the top dose activity, positive = growth rescue. 330,000 compounds, 0.19% hits; active means well fitted rising curve with a large enough effect; inconclusive means small, poorly fitted or top-dose-only effect; inactive means no such curve, though single readings can be large or run the other way; further: 0% is about no effect; nearly all actives have a fitted effect of over 55% in size; growth read by luminescence after 48 h
Cruzain inh Det: blocks cruzain activity in presence of Triton detergent; purified cruzain, Z-FR-AMC fluorescence, 0.01% Triton; Potency, µM, for the others: max response, negative = inhibition, hits mostly inhibitors; 200,000 compounds, 0.43% hits; AID 1478; P25779;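 further: plate controls were neutral wells for no effect and buffer without enzyme for full effect; nearly all actives have a fitted effect of over 40% in size; top concentration of the series not given in the record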
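15 min RT preincubation of 1.5 nM cruzain with compound, then 2 uM Z-FR-AMC added; kinetic AMC fluorescence, 60 s delta. Triton X-100 0.01%, pH 5.5.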
Starred values were filed as active, the others as inactive; ? = inconclusive; · = no result given; & = joins results of further samples; [ ] = remark or other dose. Unless noted, the call rests on the fitted dose curve; in most records, active means well fitted curve in the direction sought with a large enough effect; inconclusive means small, poorly fitted or top-dose-only effect, or another doubt; inactive means no such curve, though single readings can be large; an effect the other way counts as inactive or inconclusive. Potency means the concentration at half of the fitted maximal effect.

Sequence of screens – MARV entry inh, Cruzain noTriton, StopGo reporter, NS1 inh, RE007 growth inh, LASV entry inh, SARS PLP yeast, Cruzain inh Det
CCCOc1ccc(C2C(=O)N(C3CCCCCC3)CC(=O)N2C(C)C)cc1OC (stereo not given)
  ·, -5%, -20%, ·, ·, ?, ·, 0.8%
CCCCCC[C@@H]([C@@H](C)O)n1cnc2c(N)ncnc21
  ?, 11%&13%, -18%, 1%, 8%[18.4 µM], 6%, ·, -3.1%&-3.6%
CSc1ncccc1C(=O)OCC(=O)c1cccs1
  ?, ·, 15%, ·, -7%, 3%[46.1 µM], -1%, ·
CCn1cnc2c1c(=O)n(Cc1cccc(Br)c1)c(=O)n2Cc1ccccc1
  2%[46.1 µM], ·, ?, 26%, 18%, ?, -4%, ·
O=[N+]([O-])c1c(Nc2ccccc2O)cc(Cl)c2nonc12
  ?, ·, 10µM*, -58%, -23%, ?, -16%, ·
CC(=O)c1ccc(NC(=O)CSc2nnc(Cn3cnc4ccccc43)o2)cc1
  7%, ·, 7%, 0%, -3%, 10%, 0%, ·
COc1ccc(S(=O)(=O)CCC(=O)Nc2ccc(OC)cc2OC)cc1
  25%, 11%, 18%, 4%, 14%, -1%, ?, -4.9%
COc1ccc(NC(=O)N2CCN(Cc3nc4ccc(C)cc4o3)CC2)cc1OC
  ·, -1%, -22%, ·, ·, 23%[46.1 µM], ·, 0.7%
COCC(=O)Nc1ccc(OC)c(Cl)c1
  ?, ·, 6%, -3%, 7%, 3%[46.1 µM], 0%, ·
COc1ccc(C)cc1NC(=O)c1cc2c(s1)CCC2
  ?, -6%, 31%[activator], -27%, ·, -1%, -49%, -3.6%
O=C(COC(=O)Cc1ccc2c(c1)OCCO2)Nc1ccc(S(=O)(=O)N2CCCC2)cc1
  6%, -8%, -24%, -7%, -11%, 3%, 5%, -2.3%
OC(CNC1CCCC1)COc1ccc(-c2ccccc2)cc1 (stereo not given)
  ?, ·, -4%, -2%, -5%, 1%, 0%, ·
Cc1cc(NS(=O)(=O)c2ccc(NC(=O)CSc3nnc(-c4ccco4)n3Cc3ccco3)cc2)nc(C)n1
  -2%, ?, 58%[activator], ?, 12%, 8%, 17%, 0.8%
O=[N+]([O-])c1cccc(S(=O)(=O)c2cccc([N+](=O)[O-])c2)c1
  -19%[46.1 µM], ·, -10%, 4%, 12%, 12%, 0%, ·
CC(=O)Nc1ccccc1OC(C)C(=O)NC(C)c1ccc(F)cc1 (stereo not given)
  -7%, -12%, -15%, 9%, 3%, 7%, 6%, -2.0%
O=C(CSc1ccc(Cl)cc1)NNC(=O)c1ccncc1
  5%, ·, -1%, ·, 6%, 0%, -1%, ·
Cc1cccc(CN2C(=O)c3ccccc3Sc3ccc(C(=O)NCc4cccs4)cc32)c1
  ·, ?, -3%, ·, ·, -29%[46.1 µM], ·, 0.3%
COc1ccc(CN2CCN(C(=O)c3ccco3)CC2)cc1OC
  8%[46.1 µM], ·, -9%, ·, 5%, 12%, -3%, ·
Cc1ccc(C)n1NC(=O)c1ccccc1O
  ·, -22%, -20%, ?, 8%, ·, -3%, 2.6%
Cc1ccc(-n2c(-c3ccncc3)nnc2-c2cccs2)cc1
  3%, ·, -8%, 9%, 13%, -2%, ·, ·
O=C(NCCCSc1ccccc1)c1cc(Cl)ccc1O
  ·, ·, -3%, 13%, ?, ·, 2%, ·
C=C(C)CSc1nc(C)c(Cc2ccccc2)c(=O)[nH]1
  ?, -10%, -4%, 1%, -18%, 4%, -1%, 2.8%
COc1ccccc1NC(=O)c1cnc(SCC(=O)N2CCOCC2)n(C)c1=O
  ·, -5%, 0%, ·, ·, 5%[46.1 µM], ·, -3.0%
CNc1nc(-c2ccc3c(c2)CCN3C(=O)c2ccc(F)cc2)cs1
  ·, ·, 2%, 4%, 2%, ·, -4%, ·
O=C(CC1C(=O)NCCN1C1CCCC1)NCc1cccc(OC(F)(F)F)c1 (stereo not given)
  1%, ·, -2%, -3%, -5%, 12%, 1%, ·
CCOC(=O)Cc1nnc(NC(=O)CSc2nncn2C)s1
  -27%, -1%, ·, 0%, 1%, 0%, 1%, -1.4%
CCS(=O)(=O)NCCCc1ccccc1
  ?, -12%, -16%, 3%, -3%, 3%, 2%, 4.2%
COCCN(CCOC)C(=O)CN1C(=O)NC(Cc2c[nH]c3ccccc23)C1=O (stereo not given)
  9%[46.1 µM], ·, 6%, 2%, 24%, ·, -4%, ·
Cc1ccc(S(=O)(=O)Nn2c(O)c(C=C3N=c4ccccc4=N3)sc2=S)cc1
  ·, ·, -9%, 5%, 22%, ·, -1%, ·
Cc1cc(C)c(S(=O)(=O)N2CCCC(C(=O)NCCC3=CCCCC3)C2)c(C)c1 (stereo not given)
  -29%, 11%, 2%, 6%, 1%, ?, -6%, -2.2%
Cc1cccc(-n2nc3c(c2NC(=O)C2CC2)CS(=O)(=O)C3)c1C
  ·, ·, -24%, -8%, 2%, ·, -3%, ·
O=c1oc2ccccc2c2[nH]ccc12
  -10%[46.1 µM], ·, -18%, -1%, -6%, -17%[46.1 µM], -1%, ·
O=C(/C=C/c1ccc(O)c(O)c1)OC1C(O)CC(OC(=O)/C=C/c2ccc(O)c(O)c2)(C(=O)O)CC1O (stereo not given)
  6%, ·, 10%, 4%, 3%, ?, 0%, ·
C=CCSc1n[nH]c(=O)n1-c1cccc(C(F)(F)F)c1
  ?, ·, 0%, 5%, 3%, -4%, 2%, ·
CCCC(=O)Nc1cc(C)cn(Cc2c(F)cccc2Cl)c1=O
  ?, ·, 40%[activator], -9%, 14%, 19%, 2%, ·
O=C(CCc1nc2cccnc2n1Cc1cccs1)Nc1cccc(C(F)(F)F)c1
  ?, -5%, ?, ·, ·, -13%[46.1 µM], ·, -13%
Cc1cc(/C=C2/C(=O)N(C)C(=S)N2C)ccc1N1CCCC1
  ?, ·, 10%, 2%, -8%, -11%, -1%, ·
COc1ccccc1C1CC(c2cccc(NS(C)(=O)=O)c2)=NN1S(=O)(=O)c1ccccc1 (stereo not given)
  ·, ·, 1%, 17%, 1%, ·, 7%, ·
COC(=O)c1ccc(CSc2nc(N)cc(N)n2)cc1
  -3%, ?, 41%[activator], -60%, 3%, 23%, 1%, -2.5%
Nc1nc(NCc2ccc(Cl)cc2)nc(NCCO)c1[N+](=O)[O-]
  ?, ·, ?, -6%, 22%, ?, -1%, ·
O=C(C1CC1)N1N=C(c2ccccc2)CC1(O)C(F)(F)F (stereo not given)
  ·, ·, -13%, -10%, 3%, ·, -2%, ·
Cc1cc(C(=O)COC(=O)c2ccc3c(c2)OCO3)c(C)n1CC1CCCO1 (stereo not given)
  ?, ·, 81%[activator], -1%, 32%, 3%, -1%, ·
O=C1N=C(N2CCOCC2)S/C1=C\c1ccc(-c2ccccc2Cl)o1
  ?, 32µM*, 9%, 7%, 0%, -1%, 12%, -27%
O=[N+]([O-])c1cccc2nc3ccccc3c(NCCCn3ccnc3[N+](=O)[O-])c12
  ?, ·, 14µM*, ·, 14%, ?, ·, ·
Brc1c(Br)c(Br)c2n[nH]nc2c1Br
  21%&26%&26%&26%, 6%&-16%, ?, -33%, ·, ?, ·, -4.8%&-7.3%
COc1ccc(CCN2C(=O)c3[nH]nc(-c4ccccc4O)c3C2c2ccccc2)cc1 (stereo not given)
  -29%[46.1 µM], ?, ?, ·, ·, ?, ·, -3.2%
CCOC(=O)C1CCCN(C(=O)c2ccc(-n3ccc4ccccc43)s2)C1 (stereo not given)
  ·, 13%, -13%, ·, ·, ?, ·, -3.8%
CC1CCC(=O)N(CCSc2ccccc2)CC1 (stereo not given)
  ·, ·, 22%, -6%, 2%, ·, 11%, ·
CC(=O)c1ccc(COC(=O)c2cc3ccccc3oc2=O)cc1
  ·, ·, 49%[activator], 24%, 0%, ·, 0%, ·
COc1ccc(NC(=O)C2=C(C)NC(=O)NC2c2cccc(OC)c2OC)c(OC)c1 (stereo not given)
  8%, -11%, 7%, -3%, 24%, 6%, -7%, 1.9%

Next structures follow.
Sequence of screens – MARV entry inh, Cruzain noTriton, StopGo reporter, NS1 inh, RE007 growth inh, LASV entry inh, SARS PLP yeast, Cruzain inh Det
O=C(N=C1SC2CS(=O)(=O)CC2N1c1cccc(Cl)c1Cl)C1CCCO1 (stereo not given)
  ·, ·, 10%, 10%, 4%, ·, -4%, ·
COC(=O)c1c(C)[nH]c(C(=O)OCC(=O)N2c3ccccc3NC(=O)C2(C)C)c1C
  ?, 1%, 0%, 6%, -3%, -1%, 5%, -5.2%
COc1cc(S(=O)(=O)N2CC(=O)Nc3ccccc32)ccc1NC(C)=O
  -25%[46.1 µM], ·, 4%, 6%, 12%, ?, -11%, ·
CN(C)S(=O)(=O)c1cccc(C(=O)Nc2cc(Cl)cc(Cl)c2)c1
  -4%, -2%, -6%, -16%, 2%, ?, -4%, -9.6%
Cc1ccc(-c2nnc3sc(C4COc5ccccc5O4)nn23)cc1 (stereo not given)
  9%, -20%, -7%, -35%, 11%, 16%, -1%, -6.6%
Fc1ccc2nc(Nc3nc4cc5c(cc4s3)OCCO5)sc2c1
  ?, ?, -38%, 10%, -17%, ?, 5%, -4.4%
COc1ccc(NC(=O)CN(C)C(=O)Cc2ccc(S(=O)(=O)N3CCOCC3)s2)cc1
  ?, ·, -16%, ·, -2%, -23%, 2%, ·
Cc1oc2ncn(CC(C)C)c(=O)c2c1C(=O)Nc1ccc(Cl)cn1
  ·, 4%, -19%, ·, ·, 20%[46.1 µM], ·, -1.1%
Cc1ccc(Nc2nc(NCc3ccco3)c3ccccc3n2)cc1
  ?, ·, -42%, ·, 3%, 2.8µM*, -7%, ·
NNC(=O)c1ccc(N2CCCCCC2)c([N+](=O)[O-])c1
  -16%, ·, 2%, ·, -14%, -22%, 1%, ·
CCOC(=O)C1CCN(C(=O)CN2C(=O)COc3ccc(C(C)(C)C)cc32)CC1
  ·, ·, -25%, -4%, -15%, ·, -3%, ·

From PubChem BioAssay
